Screens: PubChem BioAssay, SRMLSC
H5N1 antiviral: antiviral screen in MDCK cells, H5N1 avian flu | cytopathic effect, luminescence, 72 h; hits give high values; no value below 0 was filed and about half of the inactive calls have no number; reference of the scale not given here | inhibition, % at 50 µM | 96,000 compounds, 0.07% hits; in the data active = inhibition above about 25%
* marks the source's active call; other numbers are inactive results; i = inactive. An excerpt, so the mix of outcomes need not match the whole.

Compound	H5N1 antiviral
O=C(CN1/C(=C(/O)c2ccccc2)C(=O)c2ccccc2S1(=O)=O)c1ccccc1	i
CCn1c(=O)cc(SCC(=O)N2CCN(C)CC2)c2ccccc21	0.2
O=C(COC(=O)c1ccc(Br)o1)NCCCc1ccccc1	0.6
Cc1ccc(C)c2[nH]c(=O)c(C(c3nnnn3Cc3ccco3)N3CCc4ccccc4C3)cc12 (stereo unspecified)	i
CSc1nnc(-c2sc3cc(C(F)(F)F)cnc3c2-c2ccccn2)n1C	i
c1ccc(N2CCN(c3ncnc4c3oc3ccccc34)CC2)cc1	1.5
O=C(c1ccco1)n1nc(-c2ccccc2)nc1SCc1ccccc1	i
Cn1c(=O)oc2cc(S(=O)(=O)N3CCC(C(=O)NCc4cccs4)CC3)ccc21	2.3
O=C(Nc1cccc(OC(F)(F)F)c1)c1ccc(Br)o1	i
CN1CCN(C(=O)CCCOc2cc(=O)n(C)c3ccccc23)CC1	3.0
CN(C)c1ccc(C2C=C(c3ccc(Cl)cc3OC(F)F)Nc3ncnn32)cc1 (stereo unspecified)	1.1
C=CCc1c(C)nc(SCC(N)=O)[nH]c1=O	0.7
Cc1nnc(SCC(=O)N2CCC(C(=O)Nc3nccs3)CC2)n1Cc1ccccc1	0.2
Nc1nnnn1/N=C/c1ccccc1OCc1ccc(Cl)cc1Cl	1.2
COc1ccc(-c2cc(C(=O)Nc3ccc(C)cc3)no2)cc1	i
Brc1ccc(-c2cnc(-c3cccs3)o2)cc1	i

5 neighbouring entries out of the list so far, for reference:
Compound	H5N1 antiviral
C=CCc1c(C)nc(SCC(N)=O)[nH]c1=O	0.7
Cc1nnc(SCC(=O)N2CCC(C(=O)Nc3nccs3)CC2)n1Cc1ccccc1	0.2
Nc1nnnn1/N=C/c1ccccc1OCc1ccc(Cl)cc1Cl	1.2
COc1ccc(-c2cc(C(=O)Nc3ccc(C)cc3)no2)cc1	i
Brc1ccc(-c2cnc(-c3cccs3)o2)cc1	i

The results go on.
Compound	H5N1 antiviral
CCCCCC1CC(/C(C)=N/NC(N)=O)OC1=O (stereo unspecified)	0.5
Cc1ccc2c(c1)cc(CN(Cc1ccco1)C(=O)COc1ccccc1)c1nnnn12	0.8
CCC(C)Nc1nc(OCC(F)(F)F)nc(OCC(F)(F)F)n1 (stereo unspecified)	i
Cc1cccc2[nH]c3c(N4CCC5(CC4)OCCO5)ncnc3c12	2.5
CN(C)/C=C1/C(=O)Nc2ccccc21	0.3
O=C(Cn1c(=O)oc2ccccc21)c1ccccc1	i
CC1(C)Cc2cccc(OCC(O)CN3CCN(c4ccccn4)CC3)c2O1 (stereo unspecified)	i
CCCn1cc(SCC(=O)NCc2ccco2)c2ccccc21	1.3
CC(C)(C)OC(=O)N[C@H](Cc1ccccc1)C(=O)N1CCC(C(=O)O)CC1	i
CCN(C(=O)CSc1ccc2c(c1)OCCO2)C1CCS(=O)(=O)C1 (stereo unspecified)	1.4
O=C(CSc1nnc(Cn2cnc3ccccc32)o1)Nc1cccc2ccccc12	0.1
O=C(O)CC1C(=O)OCN1C(=O)OCc1ccccc1 (stereo unspecified)	i
N#Cc1c(C(F)(F)F)cc(-c2ccccc2Cl)[nH]c1=O	i
CN(C)CCNC(=O)c1coc(=O)c(Br)c1	0.4
CCC(=O)Nc1nonc1-c1nc2ccccc2n1CC(C)C	0.3
c1ccc(CC2CCN(Cc3nc(-c4ccccc4)no3)CC2)cc1	i
Cc1nc2[nH]c(=O)c3c(n2n1)NC1=C(C(=O)CC(C)(C)C1)C3c1ccc(F)cc1 (stereo unspecified)	i
O=C(Cc1cccs1)Nn1c(Cc2cccs2)nc2ccccc2c1=O	i
C=CCn1c(NCCc2ccccc2)nc2c1c(=O)n(C)c(=O)n2C	6.0
COc1ccc(CN2CCN(C)CC2)cc1OCc1ccccc1	0.4
O=C(NCC1CCCO1)c1ccc(/C=N/O)nc1 (stereo unspecified)	0.3
COc1cccc(S(=O)(=O)NCc2ccc3c(c2)OCO3)c1	i
CCOC(=O)C(CC(=O)O)N1CCCCC1 (stereo unspecified)	i
Cc1[nH]c2ccccc2c1C(=O)CSc1nc2ccccc2c(=O)n1CCCN1CCOCC1	i
O=C1CCCC2=C1C(c1ccsc1)CC(=O)N2c1ccccc1 (stereo unspecified)	2.5
CCCn1c(=NC(C)=O)c(C(=O)OCC)cc2c(=O)n3ccccc3nc21	2.8
CC(C)COC(=O)C1C2C=CC3(CN(C4CCCC4)C(=O)C13)O2 (stereo unspecified)	1.4
COc1ccc(CCNCc2ccc(SC)cc2)cc1	i
COc1ccccc1NC(=O)c1sc2nc(-c3ccco3)ccc2c1N	0.1
CCOC(=O)c1c(C)[nH]c(C(=O)CN2C(=O)NC(C)(c3ccc4ccccc4c3)C2=O)c1C (stereo unspecified)	i
Cc1nc2sc3c(c2c(=O)o1)CCC3	i
CCn1c(SCc2nc3ccccc3[nH]2)nnc1-c1cccnc1	0.2
Cc1cc(C(=O)Nc2cccc(O)c2)co1	i
O=C(Nc1cccc(O)c1)c1cccc(S(=O)(=O)N2CCCC2)c1	i
Cc1ccc(-c2cc(C(=O)Nc3cccnc3)c3ccccc3n2)o1	0.5
CCCSc1nc(C)nc2c1c(=O)n(C)c(=O)n2C	1.0
Cc1ccc(S(=O)(=O)c2ccc(C)cc2)cc1	i
O=C(CSCc1nc2ccccc2[nH]1)N1CCN(c2cccc(Cl)c2)CC1	i
CC(C)Oc1ccc(N2CC(C(=O)Nc3ccc4c(c3)OCO4)CC2=O)cc1 (stereo unspecified)	0.6
CCC1(C)Cc2c(sc3nnn(CC(=O)Nc4ccccc4C)c(=O)c23)CO1 (stereo unspecified)	i
Oc1ccccc1CNc1nc2ccccc2n1CCN1CCCCC1	0.2
N#C/C(=N\Nc1ccc(Cl)cc1)C(=O)c1ccccc1	i
Cc1ccc(NC(=S)NNc2ncc(C(F)(F)F)cc2Cl)c(C)c1	0.6
CCC(=O)Nc1cc(C)c(NC(=O)CCc2ccccc2)cn1	i
Nc1cc(=O)[nH]c(SCC(=O)Nc2cccc(Cl)c2)n1	i
CCC(SCC(=O)OC)C(=O)Nc1nnc(C(C)C)s1 (stereo unspecified)	0.3
Cc1cc(NC(=O)CS(=O)(=O)c2cn(Cc3cccc(F)c3)c3ccccc23)no1	i
COc1ccc(OC)c(S(=O)(=O)Nc2ccc(OCC(=O)O)cc2)c1	1.9
Cn1c(CCN2CCCCC2)nc2cc(NC(=O)NC3CCCCC3)ccc21	i
CCCSP1(=S)NCCCO1 (stereo unspecified)	i
C=CCn1cc(Cl)c(=O)n(CC=C)c1=O	0.1
O=C1CCCc2c1[nH]c1c(Br)cccc21	0.8
N#Cc1nc(-c2ccco2)oc1NCc1ccco1	1.8
Cc1ccc(S(=O)(=O)N2CCN(S(=O)(=O)N(C)C)CC2)cc1	i
COC(=O)CSC1=C(C#N)C(c2ccccc2)CC(=O)N1 (stereo unspecified)	i
Cn1c(C(=O)O)c(CC(=O)N2CCN(Cc3ccccc3)CC2)c2ccccc21	i

Exported as labelled records: entries from further up.
> COc1ccccc1NC(=O)c1sc2nc(-c3ccco3)ccc2c1N
  H5N1 antiviral = 0.1
> CCOC(=O)c1c(C)[nH]c(C(=O)CN2C(=O)NC(C)(c3ccc4ccccc4c3)C2=O)c1C (stereo unspecified)
  H5N1 antiviral = i
> Cc1nc2sc3c(c2c(=O)o1)CCC3
  H5N1 antiviral = i
> CCn1c(SCc2nc3ccccc3[nH]2)nnc1-c1cccnc1
  H5N1 antiviral = 0.2

Later entries.
Compound	H5N1 antiviral
Cn1c(-c2ccc[nH]c2=O)nc2cc(Cl)ccc21	0.8
CCN(Cc1cc2cc(C)ccc2[nH]c1=O)S(=O)(=O)c1ccccc1	0.5
O=C1NC(c2ccc3c(c2)OCO3)Nc2ccccc21 (stereo unspecified)	i
Cc1nnsc1Sc1cccc(C(F)(F)F)c1	i
N#Cc1c(/N=C/c2cccs2)sc2c1CCC2	i
CN1CC(c2ccc(C#N)cc2)C2(COc3ccccc3C2=O)C12C(=O)Nc1ccccc12 (stereo unspecified)	0.8
CC(C)Cn1cnc2c(c(-c3ccccc3)c(-c3ccccc3)n2Cc2ccco2)c1=N	i
C=CCNS(=O)(=O)c1ccc(OCC(=O)OCC)cc1	i
CCn1c(SCc2ccccc2Cl)nc2ccccc21	1.7
CCn1c(SCC(=O)NCC2CCCO2)nc2c(c1=O)SC(C)C2 (stereo unspecified)	1.6
CC1(C(=O)NC2CCCCCC2)CCC(=O)N1Cc1ccc2c(c1)OCO2 (stereo unspecified)	0.7
CCOC(=O)c1c(C)n(CCO)c2ccc(O)cc12	i
Cc1ccc2[nH]cc(CCNC(=O)c3cccnc3)c2c1	1.1
Cc1cccc(N2C(=O)CN=C2Nc2nc(C)cc(C)n2)c1	0.5
O=C1C(=O)N(CNc2ccccn2)c2ccccc21	i
Cc1ccc(-n2nnnc2SCC(=O)c2c(N)n(CC(C)C)c(=O)n(C)c2=O)cc1	0.7
CC[n+]1c(C)sc2c(C)cc(C)cc21	0.7
Cc1noc(C)c1C(=O)Nc1nc(C23CC4CC(CC(C4)C2)C3)cs1	i
Brc1ccc2cccnc2c1	0.2
COC(=O)c1nn(-c2ccccc2)c(Sc2ccc(Cl)cc2)c1/C=N/O	0.6
Cc1onc(-c2ccccc2)c1C(=O)Nc1cccc2nsnc12	3.8
NS(=O)(=O)c1ccc(CNC(=O)/C=C/c2c(Cl)cccc2Cl)cc1	i
C/C(=N\OC(=O)c1ccc(Cl)c(Cl)c1)c1sc(C)nc1C	0.8
COc1ccc2c(C)cc(=O)[nH]c2c1	1.2
COc1c(C)cccc1C(=O)Nc1ccc(N2CCOCC2)c(Cl)c1	i
O=C(CCCN1C(=O)CCC1=O)Nc1ccc2c(c1)OCO2	0.5
Cn1nc(C(F)(F)F)c2cc(C(=O)NC3CC3)sc21	i
CC1Cc2ccccc2N1C(=O)Cn1nc(C(=O)O)c2ccccc2c1=O (stereo unspecified)	i
Cc1nc2c(Cl)cc(Cl)cc2[nH]1	i
CC(=O)Nc1ccc(NC(=O)CC2Nc3cccc4cccc(c34)NC2=O)cc1 (stereo unspecified)	i
Cc1ccc(S(=O)(=O)NNC(=O)C2CCN(S(=O)(=O)c3ccc(C)cc3)CC2)cc1	1.4
COc1ccccc1-n1cnnc1SCC(=O)c1cc(C)n(Cc2cccs2)c1C	1.6
CC(C)NCC(O)Cn1c2c(c3ccccc31)CCc1c-2cnn1-c1ccccc1 (stereo unspecified)	i
COc1ccc(C(=O)NCc2ccccc2OC)c(OC)c1	1.2
O=C(CSCCc1ccccn1)Nc1cccnc1Cl	i
Cc1cc(NC(=O)c2cc(-c3ccco3)on2)nn1Cc1ccc(Cl)cc1	i
CN1CCN(CCC(C#N)(c2ccccc2)c2ccccc2)CC1	i
CCCCC(=O)Nc1cccc(-c2cn3ccccc3n2)c1	i
O=C1CC(C2CCCO2)C(=O)N1c1cccc(Cl)c1 (stereo unspecified)	0.5
c1ccc(Cn2nnc3cnccc32)cc1	i
CCN(C(=O)COC(=O)C(Cc1ccccc1)N1C(=O)c2ccccc2C1=O)C1CCS(=O)(=O)C1 (stereo unspecified)	i
COC(=O)c1ccc(CON2C(=O)c3ccccc3C2=O)cc1	i
Cc1ccc(CNC(=O)CCCn2c(=O)c3ccccc3n(CC(=O)NCc3ccco3)c2=O)cc1	0.3
CCOC(=O)C1CCN(Cc2cn[nH]c2-c2ccc(C)cc2)CC1	i
CSc1nc2ccccc2cc1/C=C(\C#N)c1ccc(Cl)c(Cl)c1	i
CCc1cc(=O)n2c([nH]c3ccccc32)c1C#N	i
COC(=O)C1[C@H]2C(=O)N(Cc3cccs3)C[C@]23C=C[C@H]1O3 (stereo partly specified)	0.7
COc1cccc(NC(=O)C2C3C=CC(O3)C2C(=O)NCc2cccnc2)c1 (stereo unspecified)	i
CSc1ncc(C(=O)O)n1-c1ccc(F)cc1	i
Cc1cccc(N2C(=O)CC(N(O)c3ccccc3)C2=O)c1 (stereo unspecified)	i
CCOC(=O)C1CC=C(Cl)CC1C(=O)Nc1nccs1 (stereo unspecified)	i
CC(C)(C)NC(=O)C(c1ccccn1)N(C(=O)C1CSC(=O)C1)c1ccc(F)cc1 (stereo unspecified)	i
O=C(Nc1nc(-c2ccccc2)cs1)c1ccc(Br)o1	i
COc1ccc(C2=NOC(C(=O)NC3CCCCC3)C2)cc1OC (stereo unspecified)	i
Cc1cccc(N2CCN(C(=O)C3CCCN(S(=O)(=O)c4cnc[nH]4)C3)CC2C)c1 (stereo unspecified)	0.1
COc1ccc2[nH]c(=O)c(CN(Cc3ccco3)Cc3nnnn3Cc3ccccc3)cc2c1	0.5

Remaining list, next part:
Compound	H5N1 antiviral
Brc1ccc(-c2nc3ccccc3s2)s1	0.2
CC(C)(C)c1ccc(S(=O)(=O)CC(O)CSc2nc3c(cc2C#N)CCCC3)cc1 (stereo unspecified)	1.1
CCN(c1ccc(C(O)(C(=O)OC)C(F)(F)F)cc1)S(=O)(=O)c1ccccc1 (stereo unspecified)	i
C[N+]1(CCCCCCC(=O)/C=N/O)CCCCCC1	i
CN(C)S(=O)(=O)c1ccc2c(c1)nc(CCC(=O)NCC1CCCCC1)n2C	1.8
COC(=O)c1ccc(CSc2ncnc3sc(C)c(C)c23)o1	0.8
O=S1(=O)c2cccc3cccc(c23)N1Cc1ccc(-c2nnco2)cc1	0.4
COC(=O)c1cc(NC(=O)C2COc3ccccc3O2)cc(C(=O)OC)c1 (stereo unspecified)	i
CCN1C(=O)CSC1=NC1C2CC3CC(C2)CC1C3 (stereo unspecified)	i
